TRPML1 agonist – agonists of human TRPML1 channel; 0.12% of 410,000 active; activation, % (no concentration beside the values); TRPML1-expressing cells, Ca2+ dye fluorescence, FDSS; host cell line not named in the record; reference of the full effect not given here; Q9GZU1; in the data active = activation above about 50%; inconclusive = about 30% to 50%; inactive = below about 30%; note: 0% is about no effect; the text of the record puts the active cut at 80%
Target sequence (Q9GZU1 whole entry, looked up): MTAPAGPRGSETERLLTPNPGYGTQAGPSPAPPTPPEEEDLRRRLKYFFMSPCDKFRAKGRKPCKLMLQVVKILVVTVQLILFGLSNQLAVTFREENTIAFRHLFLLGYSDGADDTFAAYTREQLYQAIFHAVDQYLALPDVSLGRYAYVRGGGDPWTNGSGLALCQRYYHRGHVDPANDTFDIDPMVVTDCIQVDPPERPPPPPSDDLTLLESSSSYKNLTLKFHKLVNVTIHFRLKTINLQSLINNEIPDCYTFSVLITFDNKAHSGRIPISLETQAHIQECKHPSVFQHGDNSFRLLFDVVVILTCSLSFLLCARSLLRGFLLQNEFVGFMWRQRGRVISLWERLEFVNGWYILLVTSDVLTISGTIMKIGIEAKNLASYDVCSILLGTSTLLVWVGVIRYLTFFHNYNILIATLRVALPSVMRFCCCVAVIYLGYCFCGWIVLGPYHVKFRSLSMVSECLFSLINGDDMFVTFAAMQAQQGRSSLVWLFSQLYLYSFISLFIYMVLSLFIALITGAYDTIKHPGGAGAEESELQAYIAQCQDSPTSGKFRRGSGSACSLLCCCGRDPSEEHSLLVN
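TRPML1-DL cells, Tet-induced overnight (~16 h, 37 degrees C), loaded 45-90 min at room temperature with Ca8 no-wash calcium dye plus quencher. FDSS fluorescence: 10 s baseline, compound pin-transfer, 110 s agonist read, then EC80 54-4 (4uM final) and 110 s antagonist read.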
PINK1 modulator – changes PINK1 expression | 0.2% of 410,000 active | Potency, µM (highest dose often 76.6 µM), inactives show at the highest dose activation (PINK1 increase), hits mostly activators | AID 624263 | PINK1 immunofluorescence, high-content cytometry, 24 h; active = well fitted activation curve with a large enough effect; inconclusive = small, poorly fitted or top-dose-only effect; inactive = flat fitted curve, though single readings scatter; cell line not stated here;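 note: potency is the fitted concentration of half-maximal effect; % of control where 0% means no effect; nearly all actives have a fitted effect of over 65% in size; a mitochondrial uncoupler was the plate control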
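Compound titrations (5 concentrations, 24 h) on a stable cell line; DMSO and CCCP controls. Endpoint: fixed-cell PINK1 immunofluorescence with mitochondrial, cell and nuclear markers, scanned by microplate cytometer.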
D2 ag – activates the human D2 dopamine receptor; DiscoveRx PathHunter D2 beta-arrestin, luminescence, 90 min; 100% = 57 uM dopamine signal; 0.084% of 360,000 active; AID 624465; P14416; activation, % (no concentration beside the values); in the data active = activation above about 40%; inconclusive = about 15% to 40%; inactive = below about 15%; note: compound concentration not given in the record; the text of the record calls up to 30% inactive
Target sequence (P14416 whole entry, looked up): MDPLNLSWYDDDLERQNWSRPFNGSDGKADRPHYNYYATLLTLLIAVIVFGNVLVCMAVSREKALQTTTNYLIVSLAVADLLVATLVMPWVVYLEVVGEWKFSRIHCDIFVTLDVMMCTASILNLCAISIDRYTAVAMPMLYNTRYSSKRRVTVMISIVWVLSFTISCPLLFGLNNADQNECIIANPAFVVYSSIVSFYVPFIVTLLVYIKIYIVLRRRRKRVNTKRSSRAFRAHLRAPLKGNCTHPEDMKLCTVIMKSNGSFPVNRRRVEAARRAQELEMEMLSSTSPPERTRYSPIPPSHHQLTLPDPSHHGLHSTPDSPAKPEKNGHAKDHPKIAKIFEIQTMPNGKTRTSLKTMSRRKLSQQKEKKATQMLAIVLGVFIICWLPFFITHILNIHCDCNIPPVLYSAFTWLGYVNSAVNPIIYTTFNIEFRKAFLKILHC
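Agonist mode: compounds alone added to overnight-plated D2 PathHunter cells for 90 min at 37 C, with 57 uM final dopamine (EC100) defining full response. Beta-arrestin recruitment detected by chemiluminescent reagent, read after 1 h at ambient temperature.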
TRPML1 inh – inhibitors of human TRPML1 channel. Q9GZU1. TRPML1-inducible cells, Ca2+ dye fluorescence, FDSS; active compounds read low; inhibition of EC80 agonist-evoked calcium signal. activity change, negative = inhibition, % (test concentration not listed). 0.02% of 390,000 active; in the data active means activity change below about -50%; inconclusive means about -30% to -50%; inactive means above about -30%;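 note: stimulus is agonist 54-4 at its EC80 concentration; % is set by controls: 0 for no effect and ±100 for the full control effect; compound concentration not given in the record; the text of the record puts the active cut at -80%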
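TRPML1-DL cells, Tet-induced overnight (~16 h, 37 °C) at 1,500 cells/well, were loaded with Ca8 no-wash dye plus quencher for 45-90 min at room temperature. Compounds were pinned during FDSS kinetic reading; agonist 54-4 at EC80 (4 uM final) then added.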
Six1-Eya2 blk – inhibitors of human Six1/Eya2 interaction. Q15475+O00167. AlphaScreen GST-Six1/His-Eya2 binding, biochemical; active compounds read low; control for the full effect not named in the record. activity change, % (test concentration not listed). 0.56% of 360,000 active; in the data active = activity change below about -65%; inconclusive = about -30% to -65%; inactive = above about -30%; note: % is set by controls: 0 for no effect and ±100 for the full control effect
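AlphaScreen with GST-Six1 and His-Eya2 (5X mix: 250 nM and 500 nM), glutathione donor and nickel acceptor beads; buffer 50 mM Tris pH 8.0, 300 mM NaCl, 1 mM TCEP; 1 h at 37 C in the dark.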
D2 potentiator – potentiates the human D2 dopamine receptor allosterically | P14416 | DiscoveRx D2 beta-arrestin cells, luminescence, 90 min; 100% = 57 uM dopamine signal | potentiation, % (test concentration not listed) | 0.23% of 360,000 active | AID 624464; active = potentiation of 50% or more; inconclusive = 30% to 50%; inactive = 30% or less;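 note: compound concentration not given in the record; tested on top of an EC20 dose of dopamine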
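PathHunter D2 cells, attached overnight at 37 deg C, received compound in DMSO plus dopamine at EC20 (50 nM final) for 90 min at 37 deg C. Beta-arrestin recruitment was read as luminescence after 1 h with detection reagent at ambient temperature.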
Active calls of the source: *; ? = inconclusive; nt = not tested or not shown; & = joins results of further samples; [ ] = remark or other dose. This is a random part of the collection; overall some 1% were active at least once.

compound	D2 potentiator	TRPML1 inh	Six1-Eya2 blk	D2 ag	TRPML1 agonist	PINK1 modulator
CCCC(=O)N=C1SC2CS(=O)(=O)CC2N1c1ccc(-c2nc3ccc(C)cc3s2)cc1 (configuration not stated)	-4	-5	-6	1.2	0.8	3.4%
CSc1ccccc1-c1cnc2cccnn12	-7	nt	5	-4.4	-0.9	-0.2%
Clc1ccc(CCNc2ncnc3nc[nH]c23)cc1	-1	14	3	11	-1.4	-1.2%
Cc1cc2c(cc(C(=O)OC(C)C(=O)NCc3ccccc3)n2C)o1 (configuration not stated)	-9	12	-5	-1.0	-0.6	3.9%
O=C(CSc1nnc(CNC(=O)c2ccco2)o1)Nc1nc2ccccc2s1	-1	0	-4	-6.2	0.1	?
Cc1cc(C)nc(SCC(=O)Nc2nc(-c3ccccc3)c(-c3ccccc3)o2)n1	-3	3	0	-2.7	5.2	7.8%
Cc1nc(NC(=O)c2ccc(Br)o2)sc1C	7	25	-1	-3.5	-1.1	-0.3%
CCN1CCN(C(c2ccc(Cl)cc2)c2c(O)cc(C)n(CCOC)c2=O)CC1 (configuration not stated)	nt	17	nt	nt	0.6	-0.3%
COc1ccc(N2CCN(S(=O)(=O)c3ccc4c(c3)CCCC4)CC2)c([N+](=O)[O-])c1	-1	-3	?	0.8	0.1	nt
CCc1ccc(C(=O)COC(=O)c2nn(C)c(=O)c3ccccc23)cc1	-11	7	-10	-5.3	2.3	2.4%
Cc1ncc(CN2CCN(C(C)C)C(CCO)C2)s1 (configuration not stated)	-2	-10	14	0.4	-0.1	-2.6%
Cc1ccc(Cn2c(NCCCn3ccnc3)nc3c2c(=O)n(C)c(=O)n3C)cc1	-3	-8	0	-3.4	-0.5	-2.0%
C=CCn1c(SCC(=O)NC(=O)c2cccn2C)nc2ccccc2c1=O	-3	-12	-4	6.1	1.1	18%
CS(=O)(=O)c1cccc(C(=O)OCC(=O)NC(=O)Nc2ccccc2F)c1	2	-1	4	1.0	-0.6	14%
CCC(C)N(C(=O)COC(=O)c1cn(CC)c2nc(C)ccc2c1=O)C1CCS(=O)(=O)C1 (configuration not stated)	6	5	0	-4.1	-0.3	-1.2%

(further entries)
compound	D2 potentiator	TRPML1 inh	Six1-Eya2 blk	D2 ag	TRPML1 agonist	PINK1 modulator
Cn1c(SCC(=O)Nc2ccc3nc(SCC(=O)N4CCCC4)sc3c2)nnc1-c1ccccc1	0	6	-2	-0.1	0.8	1.4%
Nc1nn2cc(-c3ccccc3)nc2c2ccccc12	4	-2	7	6.2	-0.6	-1.4%
Cc1cc(C)cc(NC(=O)Cn2cc(C(=O)c3ccncc3)c(=O)c3cc(C)c(C)cc32)c1	nt	-5	nt	nt	0.0	3.5%
O=C(Cn1ccc(=O)[nH]c1=O)Nc1ccc(O)c([N+](=O)[O-])c1	-9	-14	-8	-1.2	3.2	-1.9%
O=C(O)CSc1ccc(S(=O)(=O)N2CCCC2)cn1	-5	36	6	-4.0	-0.1	-0.1%
Cc1ccc(C)c(Nc2cc(C(=O)NC3CCCC3)c3ccccc3n2)c1	nt	-11	nt	nt	2.9	1.0%
COc1ccc(CNC(C)C(=O)Nc2ccc3ccccc3c2)cc1OC (configuration not stated)	-3	-4	1	-5.2	-0.4	0.1%
CC1CCCN(c2ccc(C(=O)NCc3ccc4c(c3)OCO4)cc2[N+](=O)[O-])C1 (configuration not stated)	-20	30	?	-1.9	4.9	0.0%
CC(=O)Nc1ccc(NC(=O)CC(NC(=O)c2ccccc2)c2ccccc2)cc1 (configuration not stated)	-9	nt	1	-3.4	nt	?
CC1CCN(c2oc(-c3cccc4ccccc34)nc2C#N)CC1	4	-3	0	0.9	-0.6	nt
C=C(Br)Cn1c(CCCC)nc2ccccc21	-29	-3	3	-0.7	2.3	0.3%
O=C(NCc1ccco1)c1cc(-c2cccs2)on1	2	11	0	-3.3	2.0	7.7%[38.3 µM]
O=c1oc(-c2ccc(F)cc2)nc2ccsc12	-19	-5	7	-2.7	0.0	-1.7%
Cc1ccc(NC(=S)N(CCN(C)C)Cc2cc3cccc(C)c3[nH]c2=O)cc1	-12	-11	-3	-1.6	0.0	2.8%
Cn1c(Cc2cccs2)nnc1SCC(=O)N1CCc2ccccc21	-11	11	-2	-4.8	-0.8	0.2%

Next part.
compound	D2 potentiator	TRPML1 inh	Six1-Eya2 blk	D2 ag	TRPML1 agonist	PINK1 modulator
CC(C)Sc1nnc(-c2c[nH]c3ccccc23)n1C	-4	18	-4	-8.5	0.0	1.4%
Cc1nc(NC2CCCC2)sc1C(=O)N(C)C	18	17	9	-2.1	0.8	1.6%
CCN(Cc1ccccc1)S(=O)(=O)c1ccc(S(=O)(=O)N(Cc2cccc(OC)c2)CC2CCCO2)cc1 (configuration not stated)	-2	-8	8	-2.2	2.0	7.8%[38.3 µM]
CCOC(=O)c1sc(NC(=O)CSc2nncn2C)nc1C	-3	0	-5	6.0	3.2	1.2%
CCOC(=O)C1=C(COC(=O)c2cccc(NC(C)=O)c2)NC(=O)NC1C (configuration not stated)	4	-15	6	-3.9	-0.2	0.5%
Cc1[nH]n(-c2ccccc2)c(=O)c1/C=N/NC(=O)C(C)C	-8	?	?	-7.6	1.2	4.8%
Cc1nnsc1C(=O)Nc1ccc(Cl)cc1	-11	47	1	-5.2	-0.5	-1.1%[38.3 µM]
COc1ccc2c(c1)c1c(n2C(C)=O)C(OC(C)=O)=NCC1	-6	-14	21	-1.3	0.6	nt
CC(C)C[C@@H](CO)N1CCN(CCCc2ccccc2)CCC1=O	-7	5	4	-2.0	-0.4	0.4%
O=C(CNCc1ccco1)Nc1ccccc1-n1cccc1	-4	-11	-1	-0.3	0.4	nt
O=C(O)c1ccccc1N/N=C\c1ccnc2ccccc12	-15	-19	-8	-2.8	1.3	-2.4%
CCOC(=O)c1cccc(N2C(=O)C3C(C2=O)C2C=CC3C23CC3)c1 (configuration not stated)	-13	9	7	0.1	-0.7	3.0%
CC(C)Cn1cnc2c1c(=O)n(CC(O)c1ccccc1)c(=O)n2CC(C)C (configuration not stated)	-12	34	2	-2.3	-0.6	12%[38.3 µM]
O=C(CCCN1C(=O)/C(=C\c2ccco2)SC1=S)Nc1ccc(O)cc1C(=O)O	-3	1	?	1.3	1.4	-0.8%
CN(NC(=O)c1ccccc1)c1ncc(C(F)(F)F)cc1Cl	-1	-9	0	-3.3	0.3	-0.5%

(listing goes on)
compound	D2 potentiator	TRPML1 inh	Six1-Eya2 blk	D2 ag	TRPML1 agonist	PINK1 modulator
CC1(c2ccc3ccccc3c2)NC(=O)N(CC(=O)NCC(C)(C)N2CCOCC2)C1=O (configuration not stated)	-5	-12	-4	-1.2	-0.4	0.0%
CCOc1ccccc1OCC(=O)Nc1ccc2[nH]c(=O)[nH]c2c1	-2	-7	3	1.8	-0.2	-1.7%
COC(=O)C1=C(C)NC(=O)NC1c1ccccc1Cl (configuration not stated)	-4	2	3	1.1	-0.5	1.1%
O=C(NCCc1ccc(Cl)cc1)C1CCN(c2ncnc3c2nc2n3CCCCC2)CC1	nt	2	nt	nt	2.3	1.3%
COc1ccc(-c2cc(C)no2)cc1S(=O)(=O)N(C)c1ccc(C)c(C)c1	-15	0	-10	1.0	-0.5	1.4%
CC(OC(=O)c1cccc(-n2cnnn2)c1)C(=O)NCc1ccccc1 (configuration not stated)	-6	4	7	1.3	0.3	0.8%
COc1ccc(C2CC(=O)c3c([nH]c(C(=O)OC4CCCCCC4)c3C)C2)cc1 (configuration not stated)	nt	-18	nt	nt	0.8	0.4%
COc1ccc(S(=O)(=O)N2CCN(CC(=O)Nc3cc(C(F)(F)F)ccc3Cl)CC2)cc1	-12	-7	3	-0.8	-0.2	12%
CC(C)(C)NC(=O)c1ccnc(C(C)(C)C)c1	0	4	3	-1.7	0.6	-2.5%[38.3 µM]
NC(=O)C1CCN(C(=O)OCc2ccccc2)CC1	-3	17	2	-2.3	-0.8	-0.1%
CCOc1ccc(CN(CCO)CCO)cc1C(=O)OC	-4	6	13	0.0	-0.7	-0.1%
O=C(C1=C[C@H](c2ccccc2)C[C@H](OCc2ccc(CO)cc2)O1)N1CCN(Cc2ccccc2)CC1	-12	12	-7	-0.5	0.1	1.5%
COc1cccc(NC(=O)CSC2=Nc3ccccc3C3=NC(CCC(=O)NCCc4ccccc4)C(=O)N23)c1 (configuration not stated)	nt	0	nt	nt	2.1	0.2%
NC(=O)C1=C[C@H](c2ccc(C(F)(F)F)cc2)C[C@H](OCCCCO)O1	-7	-14	2	-3.6	-0.6	0.4%
C[C@@H]1CN([C@@H](C)CO)C(=O)c2cc(Br)cnc2O[C@H]1CN(C)Cc1ccccc1C(=O)O	5	7	0	-7.9	-0.1	0.0%

Copied from the entries so far for reference:
compound	D2 potentiator	TRPML1 inh	Six1-Eya2 blk	D2 ag	TRPML1 agonist	PINK1 modulator
CCOc1ccccc1OCC(=O)Nc1ccc2[nH]c(=O)[nH]c2c1	-2	-7	3	1.8	-0.2	-1.7%
COC(=O)C1=C(C)NC(=O)NC1c1ccccc1Cl (configuration not stated)	-4	2	3	1.1	-0.5	1.1%
O=C(NCCc1ccc(Cl)cc1)C1CCN(c2ncnc3c2nc2n3CCCCC2)CC1	nt	2	nt	nt	2.3	1.3%

Later entries.
compound	D2 potentiator	TRPML1 inh	Six1-Eya2 blk	D2 ag	TRPML1 agonist	PINK1 modulator
COc1cc(Cl)c(C)cc1NC(=O)c1ccc(CN2C(=O)CCn3nc(C)cc32)cc1	nt	5	nt	nt	0.6	3.6%
CCOc1ccccc1CNC(=O)c1cc2c(=O)n(Cc3cccnc3)ccc2nc1C	nt	-16	nt	nt	0.4	-1.0%
COC(=O)C1=C(C)N=C2SCCC(=O)N2C1c1ccc(OCc2ccccc2)c(OC)c1 (configuration not stated)	nt	-8	nt	nt	-1.2	0.2%
Brc1cccc(OCCCCN2CCCCC2)c1	-13	-3	5	-0.9	0.2	-1.0%
Cc1ccc(-c2nc(SCC(=O)NCC3CCCO3)c(-c3ccc(Cl)cc3)[nH]2)cc1 (configuration not stated)	-15	0	-3	-3.7	1.6	9.1%
CCOC(=O)N1CCN(C(=O)c2ccc3c(c2)N(Cc2cccc(Cl)c2)C(=O)c2ccccc2S3=O)CC1 (configuration not stated)	-12	-25&-17	0	-0.9	0.8&-0.7	2.3%&2.0%
CCOc1cc(C2C3=C(CC(C)(C)CC3=O)Nc3n[nH]c(C)c32)ccc1O (configuration not stated)	0	-2	-1	0.6	0.2	2.0%
COc1ccc(CNC(=O)COC(=O)c2ccc3c(c2)OCCO3)cc1	4	10	0	-1.0	0.2	0.3%
Cc1cc(F)ccc1S(=O)(=O)Nc1ccccc1C(=O)NCc1cccnc1	-12	11	0	-2.4	-0.9	1.2%
COCCOC(=O)c1c(NC(=O)CNCc2ccco2)sc(C(N)=O)c1C	-5	17	-12	-1.1	1.0	0.7%
CC(C)c1ccc(OCC(=O)N(Cc2ccccc2)c2ccccn2)cc1	-3	-3	25	-3.3	3.5	0.7%

Screening results (PubChem)
